# High-throughput results (PubChem BioAssay)
# BJeLR viability – BJeLR cell viability loss | BJeLR (HRASV12) viability, CellTiter-Glo ATP luminescence, 48 h; reference of the scale not given here | inhibition, % (test concentration not listed) | hit rate 0.17% among 300,000 | AID 1554;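 active means replicate mean above 50%; inconclusive means above 50% but judged a plate artefact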;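 further: 50 nL library stock added to about 25 µL; numbers are from one replicate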
# PrP 5UTR inh – inhibition of PrP 5' UTR reporter expression. hit rate 0.35% among 340,000. inhibition, % (no concentration beside the values). cell-based PrP 5' UTR mRNA reporter, plate reader;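 active means every replicate at 50% or more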;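 further: 0 = median of the neutral control wells; tested in H4 reporter cells; numbers are from one replicate; inactives centre near -14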
# Sa ugtP lethal – kills S. aureus RN4220 lacking UgtP | S. aureus RN4220 ugtP deletion, OD600 growth, 16 h; some inactives read as strong as hits | growth inhibition, % (no concentration beside the values) | hit rate 0.54% among 330,000;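 active means z-score under -3 and OD600 up to 0.15 on both plates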;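 further: plate controls were untreated wells for no effect and antibiotic for full effect; wells of about 80 µL received 100 nL stock; the first replicate is given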
# Mtb hypoxia rep – Mtb hypoxia fluorescent reporter inhibition; M. tuberculosis hypoxia-regulated fluorescent reporter, fluorescence; fluorescence inhibition, % (no concentration beside the values); hit rate 0.1% among 300,000; AID 1159583;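 active means 35 to 45% if threefold the growth effect, above 45% if 1.5-fold the growth effect; inactive means the rest, general growth blockers included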;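 further: wells of about 50 µL received 100 nL stock; 0% = vehicle wells and 100% = reference inhibitor wells; whole bacteria with a GFP reporter of the hypoxia response; strong numbers were not always called active; many hits fall short of the cut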
# Autofluor counter – counter-screen for toxin protease inhibitors: compound fluorescence | compound autofluorescence counterscreen, microsphere flow cytometry; hits give high values | fluorescence intensity (no concentration beside the values) | hit rate 3.1% among 360,000 | AID 624483;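 active means at least 3 SD above the mean of all compounds, about 16000 in these data; inconclusive means too few beads counted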;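 further: 100 nL of 1 mM stock went into each well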
# RN4220 kill – kills Staphylococcus aureus RN4220; inhibition, % (no concentration beside the values); S. aureus RN4220 growth, OD600, 16 h; hit rate 0.33% among 330,000;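 active means z-score of -3 or lower and OD600 up to 0.18 on both plates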;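 further: plate controls were untreated cells for no effect and reference antibiotic for full effect; stock transfer was 100 nL into about 80 µL; one replicate is shown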
# Mtb hypoxia rep growth – further read-out of Mtb hypoxia rep, marked with its call; growth inhibition, %; measured here: M. tuberculosis growth (absorbance);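 0% = vehicle and 100% = reference antibiotic; read after six days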
# * marks the source's active call; other numbers are inactive results; u = inconclusive; x = no result given; & = joins results of further samples.
molecule	BJeLR viability	Mtb hypoxia rep growth	Sa ugtP lethal	Mtb hypoxia rep	Autofluor counter	RN4220 kill	PrP 5UTR inh
CCC(NS(=O)(=O)c1cn(C)nc1C)c1ccccc1 (stereo not drawn)	-4	-2	2	-2	4266	-0.4	-9
COc1ccc(CNc2ncc(-c3ccccc3)n2C)c(OC)c1OC	1	7	6	1	4440	2.8	-19
O=C(CSc1nc2ccccc2o1)N1c2ccccc2Sc2ccccc21	-11	4	17	-1	10262	-1.6	-18
COc1cc(NS(=O)(=O)c2ccc(F)cc2)c(C(=O)O)cc1OC	5	x	3	x	4821	0.0	-13
CC(=O)Nc1ccc(NC(=O)CN(c2ccc([N+](=O)[O-])cc2)S(=O)(=O)c2ccccc2)cc1	13	1	9	1	4253	4.5	-29
Cc1ccc(C(CNC(=O)Nc2ccccc2)N2CCN(C)CC2)cc1 (stereo not drawn)	2	2	-5	-7	6653	0.0	-6
CCOC(=O)c1c(-c2ccccc2)oc2ccc(OC)cc12	3	x	90*	x	2877	-2.5	-36
Cc1c(CCC(=O)O)c(=O)n2c([nH]c3ccccc32)c1C#N	4	36	1	5	20757*	2.0	0
Cc1cccc(C)c1NC(=O)CCCSc1nnc(-c2ccc(Cl)cc2)n1-c1ccccc1	1	11	-6	6	2648	-0.5	-14
CCCCCOc1ccc(N2C(=O)C3C4C=CC(C3C2=O)N(C)C4=O)cc1 (stereo not drawn)	10	12	-2	1	3648	3.8	-9
COc1ccc(CCNC(=O)c2sc3ccccc3c2Cl)cc1OC	15	10	5	6	2566	6.1	-10
CCc1nc2ccccc2n1Cc1ccccc1F	-2	1	13	5	2600	5.6	-11
CCOC(=O)c1cc2c(=O)n3cccc(C)c3nc2n(CCCOC)c1=NC(=O)c1cccnc1	7	9	-4	1	4263	5.6	-7
CC(C)c1ccc(S(=O)(=O)c2n[nH]n3c2nc(=O)c2ccccc23)cc1	-3	8	17	12	11437	25	-21
NC(=O)c1ccsc1NC(=O)c1ccc(S(=O)(=O)N2CCCC2)cc1	-4	1	0	-5	4261	3.5	-31
Cc1cc(Br)cc(C)c1NC(=O)c1ccc(C#N)cc1F	-19	-1	4	9	4129	0.5	12
CC(=O)N1CCN(c2ccc(Nc3nc(C)nc4c3oc3ccccc34)cc2)CC1	5	15	-15	12	3579	0.7	-13
COc1ccccc1CN1CCc2c([nH]c3ccccc23)C1	0	-3	1	9	6280	1.0	-6
COc1cccc(Nc2nnc(SCC(=O)Nc3sccc3C(N)=O)s2)c1	2	10	-1	12	3316	5.5	-20
Cc1ccc(S(=O)(=O)Cc2c(C)noc2C)cc1	2	7	-1	6	22977*	1.5	6

# Later entries:
molecule	BJeLR viability	Mtb hypoxia rep growth	Sa ugtP lethal	Mtb hypoxia rep	Autofluor counter	RN4220 kill	PrP 5UTR inh
O=C(OCC(=O)N1CCN(C(=O)c2ccco2)CC1)c1sc2cc(F)ccc2c1Cl	1	6	13	16	3475	1.5	3
Cc1ccc(S(=O)(=O)N2CCOCC2)cc1NC(=O)CSc1nccn1C	-14	2	2	9	2386	1.5	4
Cc1cc(OCC(=O)Nc2nnc(C3CC3)s2)ccc1[N+](=O)[O-]	x	-4	1	-1	4517	6.9	-14
CN1N=C(C(=O)N2CCN(c3ccc([N+](=O)[O-])cc3)CC2)CCC1=O	-8	10	4	5	2513	4.2	-4
N[C@@H](Cn1oc(=O)[nH]c1=O)C(=O)O	4	x	x	x	6288	x	-5
CCCOc1ccc(/C=N/NC(=O)c2nnn(-c3nonc3N)c2-c2cccs2)cc1OC	-7	x	x	x	4921	x	-6
Cc1cccc(-c2cc3nc(-c4ccccc4)cc(N4CCC5(CC4)OCCO5)n3n2)c1	-5	x	-2	x	3621	4.7	-6
O=C(NN=Cc1ccc(OC(=O)c2ccco2)cc1)c1ccncc1	x	-1	7	8	x	15	x
COc1ccc(CNC(=O)CC2C[C@H](C(=O)N(C(C)C)C(C)C)[C@@]3(C)c4[nH]c5ccccc5c4CCN3C2=O)cc1OC (stereo partly drawn)	x	11	0	-1	3980	5.9	7
CC(C)(C)C(=O)NNC(=O)c1cc2sccc2s1	-2	-1	3	12	3195	1.4	-16
COc1ccc(N2CCN(C(=O)[C@@H](NC(=O)c3ccccc3Cl)C(C)C)CC2)cc1	-6	4	7	9	3856	3.9	-15
COc1cc(/C=N/NC(=O)C23CC4CC(CC(C4)C2)C3)cc(Br)c1O	-12	x	x	x	10657	x	-6
O=S(=O)(Nc1nccs1)c1cnc(Cl)c(Br)c1	1	-3	-4	2	2383	4.9	-88
O=C(NNC(=O)c1ccc(NC(=O)c2ccccc2)cc1)c1ccccc1	-3	8	1	4	4898	3.4	-18
O=C(NCCCN1CCCC1)c1ccc(CSCc2cccc(Cl)c2)o1	-4	5	12	6	9029	1.2	-19
COc1ccc(C(=O)Nc2cc([N+](=O)[O-])ccc2N2CCN(C)CC2)cc1	2	5	-4	4	19500*	1.2	-25
COc1ccc(CC(=O)NCCS(=O)(=O)N2CCN(c3ccccc3OC)CC2)cc1	1	10	-1	-1	u	-1.3	-7
CCOC(=O)NC(=O)/C(C#N)=N/Nc1c(F)cccc1F	-10	x	x	x	2133	x	61*
O=C(CSc1nnc(-c2cccnc2)n1Cc1ccco1)c1ccc(Cl)cc1	-5	11	-12	4	5777	-3.9	-16
C=C(C)C=NNC(=S)Nc1ccc(S(=O)(=O)N2CCOCC2)cc1	x	-7	6	12	x	5.8	x

# Remaining list, next part.
molecule	BJeLR viability	Mtb hypoxia rep growth	Sa ugtP lethal	Mtb hypoxia rep	Autofluor counter	RN4220 kill	PrP 5UTR inh
Cc1ccc(S(=O)(=O)N/N=C/c2cnn(C)c2C)cc1	5	x	x	x	2407	x	-14
COc1ccc(CCNC(=O)c2nn(C)cc2Cl)cc1	-7	6	-1	-3	12507	0.0	-10
Cc1ccc(NC(=O)COCC(=O)Nc2ccc(C)cc2)cc1	0	5	9	1	3849	2.0	-23
COc1cc2c(cc1OC)C(COc1ccc([N+](=O)[O-])cc1)NCC2 (stereo not drawn)	13	5	5	9	5314	-2.7	-2
O=[N+]([O-])c1cn(Cc2ccc(Cl)cc2)cn1	-7	2	9	11	2672	5.4	-22
COc1ccc(S(=O)(=O)N(C)CC(=O)Nc2ccc3c(c2)OCO3)cc1OC	0	6	-9	0	3105	0.2	-9
CCOC(=O)NN=Cc1cn(CCCOc2ccc(C)cc2)c2ccccc12	x	6	-10	9	x	1.6	x
CCCCCCc1ccc(OCC(=O)O)cc1OCC(=O)O	-9	1	3	5	4406	2.4	-12
Cc1ccc(OCC(=O)NN=Cc2ccccc2)c([N+](=O)[O-])c1	x	2	7	-5	x	2.7	x
Cc1cc(NC(=O)COc2cccc([N+](=O)[O-])c2)no1	-4	3	3	10	u	2.8	-21
CN(C)C(=O)CCc1ccc2c3c([nH]c2c1)[C@]1(C)[C@@H](C(=O)N2CCCCC2)C[C@H](CC(=O)NCc2cccc(C(F)(F)F)c2)C(=O)N1CC3	x	0	4	-8	3782	-0.9	-4
CSc1nc(Cl)c(Cc2ccc(OC(C)C)cc2)c(N(C)C)n1	1	-2	94*	6	1962	-13	-3
Cc1cc(C(=O)COC(=O)C23CC4CC(CC(O)(C4)C2)C3)c(C)n1C	x	9	1	11	3910	-0.2	-81
Cc1nn(-c2ccccc2)c(N)c1C(O)(C(F)(F)F)C(F)(F)F	-4	5	1	3	2459	0.0	-15
COC(=O)CCC(=O)OC1(C)C(=O)C=C2C=C(C3CC3)N(Cc3ccccc3)C=C2C1=O (stereo not drawn)	7	10	3	10	3926	3.1	-34
C/C(N)=C(/C#N)C(=O)CSc1nnc(Nc2ccccc2C)s1	2	x	-3	x	2357	1.0	-36
CCOC(=O)C1CCCN(S(=O)(=O)c2ccc3ccccc3c2)C1 (stereo not drawn)	-13	6	-6	-3	5897	-8.1	-10
CCCNC(=O)COc1ccc(-c2nn(C)c(=O)c3ccccc23)cc1	-3	9	11	23	4035	0.1	-15
O=C(c1ccco1)N1CCN(C(=O)C(Sc2ccccc2)c2ccccc2)CC1 (stereo not drawn)	5	-6	2	6	12676	2.9	-19
O=C(CSc1nnc2n1CCCN2)c1ccccc1	-2	7	6	9	x	2.7	x

# Additional entries follow:
molecule	BJeLR viability	Mtb hypoxia rep growth	Sa ugtP lethal	Mtb hypoxia rep	Autofluor counter	RN4220 kill	PrP 5UTR inh
O=C(NCc1csc(-c2cccs2)n1)Nc1ccc(C(F)(F)F)cc1	5	10	3	-5	4467	3.6	x
CCCn1c(SCC(=O)NC2CC2)nnc1-c1cccs1	9	4	9	3	4757	5.1	-20
O=C(Nc1ccc(F)cc1)c1ccc(S(=O)(=O)N2CCCC2)cc1	4	-1	1	-6	4203	0.9	-5
O=S(=O)(Nc1ccc(N2CCCCC2)cc1)c1ccc(F)cc1F	-2	-7	9	13	2814	4.3	x
O=C(NCC1CCCO1)Nc1ccc(Cl)cc1 (stereo not drawn)	-2	12	-3	12	2891	-11	-22
COc1ccc(NC(=O)C2CCC(CNc3c(N4CCC(C)CC4)c(=O)c3=O)CC2)cc1OC (stereo not drawn)	16	6&3	-1&9	4&12	3769&5717	0.3&0.4	-12&-29
CCc1ccc(N2CC34C=CC(O3)C(C(=O)OC)C4C2=O)cc1 (stereo not drawn)	-6	x	0	x	6177	0.3	-15
Cc1nn(Cc2ccccc2)c(N)c1C#N	-2	x	2	x	4084	-0.1	-5
COc1cc(NC(=S)NCc2cccnc2)cc(OC)c1	16	-8	4	4	2230	3.5	-16
COc1ccc(NC(=O)Nc2cccc3c2OC(CN(C)C(=O)Nc2ccc(C(F)(F)F)cc2)C(C)CN(C(C)CO)C3=O)cc1 (stereo not drawn)	x	-5	4	2	x	-4.3	x
CC1CCCCC1NC1=NCCCS1 (stereo not drawn)	-1	-12	8	4	x	0.6	x
Cc1cnc(C(=O)Nc2ccc(N3CCOCC3)cc2)cn1	-2	-2	0	5	9622	2.2	-25
O=C(N/N=C/c1ccccn1)c1ccc(Cl)cc1	20	x	x	x	u	x	-32
Cc1nc(N2CCOCC2)nc2c1CCC2	8	-3	-9	-8	2299	-7.4	-10
Cc1ccc(NC(=S)N2CCCC(c3nc4ccc(C)cc4[nH]3)C2)c(C)c1 (stereo not drawn)	4	4	-6	3	9644	5.5	-9
CCOC(=O)c1c(NC(=O)c2cccnc2)sc(C)c1C	1	10	-9	12	5506	19	-13
O=C(CCN1CCN(Cc2ccccc2)CC1)NNC(=O)Nc1cccc(Cl)c1	-9	11	-10	5	4665	1.9	5
CCCCN(CCCC)CCNC(=O)Cc1nc2c(c(=O)[nH]c(=O)n2C)n1C	-2	x	-2	x	x	-2.9	x
CN(C)c1ccc(C=NN(Cc2ccccc2)c2ccccc2)cc1	x	5	9	14	x	-1.9	x
O=S(=O)(/N=C(/Nc1ccccn1)c1ccc(Cl)cc1)c1ccc(Cl)cc1	8	6	-4	9	2480	10	-32

# Single entries from above.
# CCCn1c(SCC(=O)NC2CC2)nnc1-c1cccs1 in Autofluor counter is entered as 4757
# COc1ccc(NC(=O)C2CCC(CNc3c(N4CCC(C)CC4)c(=O)c3=O)CC2)cc1OC (stereo not drawn) in Mtb hypoxia rep is entered as 4&12
# COc1cc(NC(=S)NCc2cccnc2)cc(OC)c1 in Mtb hypoxia rep is entered as 4

# Other records
molecule	BJeLR viability	Mtb hypoxia rep growth	Sa ugtP lethal	Mtb hypoxia rep	Autofluor counter	RN4220 kill	PrP 5UTR inh
CC(C)N(CCCNC(=O)Cn1c(=O)c2cccn2c2ccccc21)Cc1ccccc1	-6	8	2	-8	5759	0.6	-13
COc1ccc(NS(=O)(=O)c2cc3c(cc2C)N(C)CCO3)c(OC)c1	1	1	0	6	6114	6.1	1
O=C(COC(=O)c1cccnc1)Nc1cccc2ccccc12	-6	4	6	9	5907	-0.5	8
CC(=O)Nc1ccc(NC(=O)CN(C)CC(=O)Nc2ccccc2Br)cc1	3	8	2	5	4431	2.3	-17
COCCN(C(=O)CCC(=O)Nc1nccs1)C(C(=O)NC(C)(C)C)c1ccc(C)cc1 (stereo not drawn)	5	-1	-4	8	3877	1.6	-20
O=C(Cn1cnc2ccccc2c1=O)NNC(=O)c1cccc([N+](=O)[O-])c1	x	3	8	-3	3489	5.6	-14
